Compound activity as filed in PubChem.
RN4220 kill: growth inhibition of S. aureus RN4220, primary screen, OD600. inhibition, % (no concentration beside the values). actives 0.33% (n = 330,000). AID 1259311, 2017. 16 h;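 active = z-score of -3 or lower and OD600 up to 0.18 on both plates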;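 also: plate controls were untreated cells for no effect and reference antibiotic for full effect; stock transfer was 100 nL into about 80 µL; one replicate is shown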
ugtP null kill: growth inhibition of ugtP-null S. aureus, primary screen, RN4220 ugtP deletion, OD600; 16 h; some inactives read as strong as hits; growth inhibition, % (no concentration beside the values); actives 0.54% (n = 330,000); AID 1259309, 2017;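 active = z-score under -3 and OD600 up to 0.15 on both plates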;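 also: plate controls were untreated wells for no effect and antibiotic for full effect; wells of about 80 µL received 100 nL stock; the first replicate is given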
Mtb hypoxia rep: PubChem AID 1159583; M. tuberculosis hypoxia-regulated fluorescent reporter, fluorescence; actives 0.1% (n = 300,000); fluorescence inhibition, % (test concentration not listed);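 active = 35 to 45% if threefold the growth effect, above 45% if 1.5-fold the growth effect; inactive = the rest, general growth blockers included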;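 also: wells of about 50 µL received 100 nL stock; 0% = vehicle wells and 100% = reference inhibitor wells; whole bacteria with a GFP reporter of the hypoxia response; strong numbers were not always called active; many hits fall short of the cut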
BJeLR viability: MLPCN primary cell-based screen for lethality selective to Ras in HRASV12 cells; BJeLR (HRASV12) viability, CellTiter-Glo ATP luminescence, 48 h; reference of the scale not given here; inhibition, % (concentration not given with the values); actives 0.17% (n = 300,000);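 active = replicate mean above 50%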;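 also: 50 nL library stock added to about 25 µL; numbers are from one replicate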
Autofluor counter: flagged as autofluorescent in microsphere protease counterscreen; fluorescence intensity (test concentration not listed); actives 3.1% (n = 360,000); AID 624483; compound autofluorescence counterscreen, microsphere flow cytometry; stronger effect = higher value;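 active = at least 3 SD above the mean of all compounds, about 16000 in these data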;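 also: 100 nL of 1 mM stock went into each well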
PrP UTR inh: inhibition of PrP 5' UTR reporter expression; cell-based PrP 5' UTR mRNA reporter, plate reader; inhibition, % (no concentration beside the values); actives 0.35% (n = 340,000); AID 488862, 2010;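 active = every replicate at 50% or more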;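 also: 0 = median of the neutral control wells; tested in H4 reporter cells; numbers are from one replicate; inactives centre near -14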
Mtb hypoxia rep growth: recorded beside Mtb hypoxia rep, whose call it bears; growth inhibition, %; measured here: M. tuberculosis growth (absorbance);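 0% = vehicle and 100% = reference antibiotic; read after six days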
An asterisk follows results filed as active; / = not tested or not shown; & = joins results of further samples.

SMILES	RN4220 kill	ugtP null kill	Mtb hypoxia rep	Mtb hypoxia rep growth	BJeLR viability	Autofluor counter	PrP UTR inh
CCOc1ccccc1N1CCN(C(=O)c2cc[n+]([O-])cc2)CC1	-6.5	-3	-1	5	-3	5032	6
O=C(O)C1CSC(c2ccc(O)c([N+](=O)[O-])c2)N1 (stereo not drawn)	5.7	13	25	40	/	3683	-49
CN(C)/C=C1\C(=O)NN=C1C(F)(F)F	1.5	12	5	9	-1	2013	-18
COc1ccc(C(=O)Nc2cc(C)nc3ccccc23)cc1OC	4.0	7	15	15	-8	3174	-15
O=c1oc2cc(O)ccc2cc1-c1nc2c(s1)CCc1ccccc1-2	-2.7	38	7	5	/	4485	-9
Cc1cc([N+](=O)[O-])nn1CC(=O)NCc1ccco1	5.9	2	6	4	-5	2616	-27
COc1cc(NC(=S)NC(=O)c2ccccc2F)ccc1NC(=O)c1cccs1	2.8	2	9	5	-3	3148	-11
CCNc1sc(C(=O)c2cccs2)c(N)c1C#N	5.8	0	/	/	-6	3558	17
COc1cc(C(=O)NNC(=O)c2ccco2)cc(OC)c1OC	-1.8	-2	2	-5	-3	5533	-20
COc1ccc([C@H]2/C=C\CN(S(=O)(=O)c3ccc(C)cc3)[C@@H](C)C(=O)N2Cc2ccc(F)cc2)cc1	/	/	/	/	-3	3186	-4
CCOC(=O)C1(Cc2ccccc2C(F)(F)F)CCN(C(C)CCn2cccn2)CC1 (stereo not drawn)	5.7	3	0	3	-2	3795	-19
COC(=O)c1ccccc1NC(=O)/C=C/c1cc(OC)c(OC)c(OC)c1	3.9	-3	/	/	-1	2440	-31
O=C(Oc1c(CN2CCOCC2)cc(Cl)c2cccnc12)c1ccccc1Cl	5.5	-1	5	0	30	4442	7
O=C(Nc1nc2c(Br)cccc2s1)C1CC1	35	9	-2	-11	9	5355	-36
Cn1nnnc1SCC(=O)Nc1nc2c(s1)CCCC2	3.7	7	14	2	-5	7909	-234
Cc1cc(N=Nc2ccc(C)c(N=Nc3cc(C)c(N)cc3N)c2)c(N)cc1N	/	/	/	/	9	1956	31
CC(C)NC(=O)c1ccccc1NC(=O)C(C)Oc1ccccc1 (stereo not drawn)	4.3	-72	15	-4	2	3025	5
CCOC(=O)Cn1c(=O)oc2cc(S(=O)(=O)N(C)Cc3ccco3)ccc21	3.6	10	-4	1	-2	5474	-12
CCc1cccc(NC(=S)N(CCCOC(C)C)C2CCN(C(C)=O)CC2)c1	-1.8	4	1	-6	-3	3519	-4
CCn1cc(CN2CCCC(C(=O)Nc3ccc(-c4cscn4)cc3)C2)c(C)n1 (stereo not drawn)	-2.8	-2	-1	-7	11	5758	-6
O=C(NCc1cccs1)c1cc(-c2cccs2)on1	4.4	-2	0	9	7	22229*	-81
CCOC(=O)N1CCC(N2Cc3cccc(C(=O)Nc4ccc(F)cc4)c3C2=O)CC1	0.0	-10	6	13	2	4616	-14
CNc1nc(SC(C)C(=O)Nc2ccc(Cl)c(Cl)c2)nc(N2CCOCC2)n1 (stereo not drawn)	-0.7	-5	-11	-3	10	3902	-14
CC1CC(C)CN(C(=O)CCc2nnc3ccc(N4CCCCC4)nn23)C1 (stereo not drawn)	2.7	4	12	14	-2	5088	-23
CCOC(=O)Cc1csc(N/N=C\c2cccc(Br)c2)n1	/	/	/	/	2	9228	-10

A different layout for some results above:
Screens in order: RN4220 kill	ugtP null kill	Mtb hypoxia rep	Mtb hypoxia rep growth	BJeLR viability	Autofluor counter	PrP UTR inh
> CCOC(=O)N1CCC(N2Cc3cccc(C(=O)Nc4ccc(F)cc4)c3C2=O)CC1
    0.0	-10	6	13	2	4616	-14
> CNc1nc(SC(C)C(=O)Nc2ccc(Cl)c(Cl)c2)nc(N2CCOCC2)n1 (stereo not drawn)
    -0.7	-5	-11	-3	10	3902	-14
> COc1cc(C(=O)NNC(=O)c2ccco2)cc(OC)c1OC
    -1.8	-2	2	-5	-3	5533	-20
> O=c1oc2cc(O)ccc2cc1-c1nc2c(s1)CCc1ccccc1-2
    -2.7	38	7	5	/	4485	-9
> O=C(Oc1c(CN2CCOCC2)cc(Cl)c2cccnc12)c1ccccc1Cl
    5.5	-1	5	0	30	4442	7
> CC1CC(C)CN(C(=O)CCc2nnc3ccc(N4CCCCC4)nn23)C1 (stereo not drawn)
    2.7	4	12	14	-2	5088	-23
> CCOc1ccccc1N1CCN(C(=O)c2cc[n+]([O-])cc2)CC1
    -6.5	-3	-1	5	-3	5032	6

Later entries.
SMILES	RN4220 kill	ugtP null kill	Mtb hypoxia rep	Mtb hypoxia rep growth	BJeLR viability	Autofluor counter	PrP UTR inh
COc1cc(Cl)c(CN2CCC(CO)(CCOc3ccccc3)CC2)cc1OC	-2.7	8	17	3	-5	3788	-14
CCCOC(=O)C(C)n1c(-c2ccccc2)nc2ccccc2c1=O (stereo not drawn)	-0.3	5	5	2	-2	7566	/
CC(C)n1cc(CN2CCC(Oc3ccc(C(=O)N4CCCC4)cc3)CC2)cn1	1.2	7	2	3	2	5687	-17
COC(=O)c1ccc(CSc2nnc(CNC(=O)COc3ccc(Cl)cc3)o2)o1	-0.2	12	/	/	-1	4589	-34
COc1ccc([C@@H]2[C@@H]3C(=O)N(C(C)(C)C)C(=O)[C@@H]3[C@]3(C)C(=O)N(c4cccc(F)c4)C(=O)N23)cc1	/	/	/	/	-2	4233	-3
c1ccc(-c2cn3c(n2)-c2ccccc2C3)cc1	1.4	-8	8	-6	35	8721	26
COc1ccc(-c2c(-c3ccc(OCC(=O)NN)cc3O)n[nH]c2C)cc1	0.9	13	10	-2	-2	4602	-11
O=C(Nc1cccc([N+](=O)[O-])c1)c1cnccn1	0.8	6	4	2	-8	2232	-23
Cc1cccc(NC(=O)c2ccc(COc3ccccc3)o2)n1	4.9	-8	-5	4	-11	5501	-22
CC(C)n1c(SCC(=O)Nc2ccccc2)nc2c1c(=O)n(C)c(=O)n2C	0.5	7	/	/	-1	2770	-10
O=C(CSCc1cccc(Cl)c1)OCc1nc2ccsc2c(=O)[nH]1	1.4	-1	1	-4	-14	4280	-50
Cn1c(N2CCOCC2)c(C#N)c2ccccc21	3.3	4	-10	1	-5	2970	-34
Cc1ccccc1NC(=O)CCN1CCN(CCO)CC1	4.5	2	16	0	5	3860	-10
COc1ccc(NC(=O)C2Cc3ccccc3CN2C(=O)c2ccco2)cc1 (stereo not drawn)	7.1	8	-3	-4	-8	3917	-16
Cc1ccc(F)cc1NC(=O)COC(=O)C1CCN(c2ccc(C(F)(F)F)cn2)CC1	6.3	-3	4	1	0	5807	-2
CC(C)n1c(=O)[nH]c(=O)n1C(C)C	1.8	4	4	1	/	3124	-23
Nc1nc(CSC(=S)N2CCOCC2)nc(Nc2ccccc2)n1	7.5	-4	1	4	20	2341	-86
CCOc1ccc(NC(=O)CCCN2C(=O)C(c3ccccc3)Oc3cccnc32)cc1 (stereo not drawn)	-2.4	3	3	-1	7	5683	-24
CCc1ccccc1NC(=O)CSc1nc2ccccc2n1CC(=O)N1CCCC1	-1.1	-5	/	/	8	2167	-9
CC(=O)N/C(=C/c1ccccc1)C(=O)NC(Cc1ccccc1)C(=O)O (stereo not drawn)	2.5	9	12	0	5	10347	3
COc1ccc(C2=NN(S(C)(=O)=O)C(c3ccc4nccnc4c3)C2)cc1 (stereo not drawn)	-3.6	-5	-9	5	16	4522	-47
CC1CCC2(CC1)NC(=S)N(C(C)(C)C)N2 (stereo not drawn)	4.3	5	11	10	4	4161	-22
COc1ccc(CNC(=O)N2CCN(S(=O)(=O)c3ccc(C)cc3C)CC2)cc1	1.4	6	14	7	6	5632	-18
CC1Cc2ccccc2N1C(=O)C1CCCN(S(=O)(=O)c2cccc3nsnc23)C1 (stereo not drawn)	1.2	4	10	11	-10	4006	4
Cc1ccc2cc(CCNC(=O)Cc3cccs3)c(=O)[nH]c2c1	7.4	12	6	8	-1	5930	-18
Continued.
SMILES	RN4220 kill	ugtP null kill	Mtb hypoxia rep	Mtb hypoxia rep growth	BJeLR viability	Autofluor counter	PrP UTR inh
COc1ccc(S(=O)(=O)NCCC(=O)NCc2ccc(F)cc2)cc1	-2.6	4	-3	1	14	19366*	-40
CC(=O)Nc1ccc(NC(=O)C/C(C)=N/NC(=O)c2cccc3ccccc23)cc1	/	/	/	/	-3	4043	-17
Cc1ccn(CC(=O)N2CCCC(N3CCN(c4cccc(Cl)c4)CC3)C2)n1 (stereo not drawn)	3.3	5	6	2	9	5424	-11
Cc1cccn2cc(-c3ccc(Cl)cc3)nc12	21	12	5	11	-3	3771	-40
CC(=O)c1c(C)n(-c2ccc(C)cc2C)c2ccc(O)cc12	-1.0	-13	-3	-1	3	3087	-47
O=C(Nc1cccc(C(F)(F)F)c1)Nc1ccc(N2CCCC2)c(S(=O)(=O)Nc2ccccc2Cl)c1	53&45	54&48	7&9	6&-3	2	2345	-31
Cc1ccc(CSCCC(=O)NCCC2=CCCCC2)cc1	3.6	-2	/	/	4	2118	-30
CC(C)CC(NC=C1C(=O)OC(C)(C)OC1=O)C(=O)O (stereo not drawn)	8.0	-4	7	9	1	3073	-18
CN(C)/C=N/C(=S)Nc1ccc(Cl)cc1Cl	/	/	/	/	8	3917	-47
CCOC(=O)c1c(N2C(=O)C3C4C=CC(C4)C3C2=O)sc2c1CCC(C)C2 (stereo not drawn)	/	/	/	/	-16	2487	-11
O=C(c1ccc(-c2cccc(C(F)(F)F)c2)o1)N1CCOCC1	6.7	-5	/	/	-3	4377	-34
COc1ccc(C)cc1NC(=O)C(OC(=O)c1ccc(Cl)c(S(=O)(=O)N(C)c2ccccc2)c1)c1ccccc1 (stereo not drawn)	2.5	13	-1	4	4	2236	-12
O=C(c1cccc([N+](=O)[O-])c1)N1CCN(c2ccc(Cl)cc2)CC1	4.1	-3	14	12	-2	2096	-18
CC(C)CNC(=S)N(CCCN(C)C)Cc1cc2cc3c(cc2[nH]c1=O)OCCO3	2.3	2	1	-4	-5	4202	-26
CCOC(=O)CON1C(=O)C(C)(C)N(OCC(=O)OCC)C(=O)C1(C)C	-2.1	1	/	/	-5	2696	-8
CN(C)S(=O)(=O)c1ccc(C(=O)OCC2CCCO2)cc1 (stereo not drawn)	5.4	5	15	7	-5	4034	-23
Cn1c(N/N=C/c2cc3ccccc3nc2Cl)nc2ccccc21	/	/	/	/	40	2608	-47
Cc1ccc(Cl)c(NC(=O)CSc2cccc[n+]2[O-])c1Cl	5.2	-2	4	2	/	3678	-41
CC1CCCCCCCCC(=O)OCCN(C(=O)OC(C)(C)C)C(C)CCCCCCCCC(=O)OCCN1C(=O)OC(C)(C)C (stereo not drawn)	2.0	-5	2	9	/	/	/
O=c1oc2cc(Br)ccc2n1CSC1=NCCS1	9.0	14	/	/	/	4726	-22
CN(C)S(=O)(=O)c1ccc(C(=O)OCC(=O)NC(=O)NC2CCCC2)cc1	4.5	7	31*	63*	/	3032	-3
COc1ccccc1NC(=O)C(=O)NN=C(C)CC(=O)Nc1ccccc1C(F)(F)F	0.7	5	-9	10	/	/	/
COc1cccc(-n2c(SCC(=O)NC3CCCC3)nnc2-c2ccco2)c1	2.8	4	/	/	2	2978	-4
C=CCNc1nc2c(c(=O)n(C)c(=O)n2C)n1CCCCCC	1.5	2	18	6	/	9547	-44
Cc1ccc(N2C(=O)CCSC23C(=O)Nc2ccccc23)cc1 (stereo not drawn)	-1.9	-1	-10	9	-1	5771	-12
More results
SMILES	RN4220 kill	ugtP null kill	Mtb hypoxia rep	Mtb hypoxia rep growth	BJeLR viability	Autofluor counter	PrP UTR inh
COC(=O)c1cn(C(=O)c2ccco2)c2ccccc12	3.3	5	/	/	-2	4575	-24
CCC(C)(C#CCN1CCCCC1)OCCC#N (stereo not drawn)	4.4	5	4	4	-19	2116	-13
O=C(COc1coc(CN2CCc3ccccc3C2)cc1=O)Nc1cccc([N+](=O)[O-])c1	-1.6	3	7	5	3	5390	-33
CCn1cc(C(=O)NCC2CCCO2)c(=O)c2cc(S(=O)(=O)N3CCC(C)CC3)ccc21 (stereo not drawn)	4.9	-6	0	12	0	5123	-22
CCOc1ccc(NC(=O)CC2C(=O)N(c3ccc(OC)cc3)C(=O)N2Cc2ccc(OC)cc2)cc1 (stereo not drawn)	-10.0	1	7	9	0	5774	-12
COC(=O)C1=C(c2ccc(F)cc2F)CC2CCC1N2C(=O)NCc1ccc(C(F)(F)F)cc1 (stereo not drawn)	-0.9	-11	2	9	/	/	/
COc1ccc(O)c(/C=N/NC(=O)c2ccc(CSc3nc(C)cc(C)n3)cc2)c1	/	/	/	/	46	1963	19
N=c1c(C(=O)NCc2ccc3c(c2)OCO3)cc2c(=O)n3ccccc3nc2n1CC1CCCO1 (stereo not drawn)	0.6	4	1	9	-3	5738	-8
